gsp agonist – qHTS for Agonist of gsp, the Etiologic Mutation Responsible for Fibrous Dysplasia/McCune-Albright Syndrome: qHTS | gsp mutant cells, cAMP HTRF, 30 min; control for the full effect not named in the record | Potency, µM (highest dose often 76.9 µM), inactives show top-dose activation (cAMP increase), usual class: activators | 340,000 tested, 0.13% active; active = well fitted activation curve with a large enough effect; inconclusive = small, poorly fitted or top-dose-only effect, or another doubt; inactive = no such curve, though single readings can be large or run the other way; cell line not stated here;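 note: phosphodiesterase inhibitor Ro 20-1724 added with compounds to block cAMP breakdown; potency is the fitted concentration of half-maximal effect; nearly all actives have a fitted effect of over 60% in size; about a fifth of the inactives were tested at one dose only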
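Cells in DMEM/10% FBS with G418 were pretreated with compounds in DMSO plus […] (300 uM stock) for 30 min at 37C. cAMP was measured by HTRF (cAMP-d2 plus anti-cAMP antibody-K) after 30 min at room temperature.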
gsp antagonist – qHTS for Antagonists of gsp, the Etiologic Mutation Responsible for Fibrous Dysplasia/McCune-Albright Syndrome: qHTS; gsp-mutant cells, cAMP HTRF, 30 min; control for the full effect not named in the record; Potency, µM (doses to about 76.9 µM), without a hit: at the top dose activity change, negative = inhibition, most hits filed as inhibitors; 340,000 tested, 0.4% active; AID 624288, 2012; active = falling curve of any shape with a large fitted effect; inconclusive = falling curve, mostly with a smaller effect; inactive = flat or rising curve; cell line not stated here;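 note: intracellular cAMP measured with PDE inhibitor Ro 20-1724 present during compound exposure; potency is the fitted concentration of half-maximal effect; % is set by controls: 0 for no effect and ±100 for the full control effect; nearly all actives have a fitted effect of over 65% in size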
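Measurement of cellular cAMP by homogeneous time-resolved fluorescence following a 30 min compound exposure at 37C. The PDE inhibitor […] was present throughout; the assay buffer was DPBS with 0.05% BSA and 0.005% Tween 20.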
Menin-MLL FL inh – qHTS Assay for Inhibitors Targeting the Menin-MLL Interaction in MLL Related Leukemias: Competition With Fluorescein Labeled MLL-derived Peptide | Fluorescence polarization, fluorescein-MLL peptide displacement from menin | 290,000 tested, under 10 active | AID 1766, 2009 | FP activity change, % at 61.4 µM; inconclusive = falling polarisation curve, or a change in total fluorescence; inactive = total fluorescence flat and polarisation flat or rising; no compound was filed as active; the % refers to the polarisation; negative = inhibition;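 note: % of control where 0% means no effect; inhibitors lower the polarisation; unlabelled MLL peptide was the positive control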
ClpP mod – qHTS Assay for Activators of ClpP; purified B. subtilis ClpP, FRET peptide cleavage, 20 min; AID 651965, 2013; 340,000 tested, 1.9% active; ATP-dependent Clp protease proteolytic subunit (Bacillus subtilis (strain 168)), P80244; Potency, µM (highest dose often 57.5 µM), inactives show top-dose activity change, negative = active; active = well fitted falling curve with a large enough effect; inconclusive = small, poorly fitted or top-dose-only effect; inactive = no such curve, though single readings can be large or run the other way; note: potency is the fitted concentration of half-maximal effect; the source files actives as falling curves though it sought activators and does not explain the sign; nearly all actives have a fitted effect of over 65% in size; many hits overshoot -100%
Target sequence (P80244 whole entry, looked up): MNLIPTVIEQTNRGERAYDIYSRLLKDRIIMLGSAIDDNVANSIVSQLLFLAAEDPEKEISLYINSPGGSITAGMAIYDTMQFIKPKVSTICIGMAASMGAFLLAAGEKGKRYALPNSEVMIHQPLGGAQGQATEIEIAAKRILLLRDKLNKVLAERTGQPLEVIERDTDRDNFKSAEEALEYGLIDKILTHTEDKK
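Buffer: 100 mM Tris/HCl pH8, 100 mM KCl, 0.05% low protease BSA, 2.5% glycerol, 0.01% Tween-20. ClpP 10 microg/mL final; 20 min RT; delta FRET normalized to ADEP and DMSO controls.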
TRPML1 ag – qHTS for Agonists of the Human Mucolipin Transient Receptor Potential 1 (TRPML1); TRPML1-expressing cells, Ca2+ dye fluorescence, FDSS; host cell line not named in the record; reference of the full effect not given here; activation, % (concentration not given with the values); 410,000 tested, 0.12% active; in the data active = activation above about 50%; inconclusive = about 30% to 50%; inactive = below about 30%; note: 0% is about no effect; the text of the record puts the active cut at 80%
Target sequence (Q9GZU1 whole entry, looked up): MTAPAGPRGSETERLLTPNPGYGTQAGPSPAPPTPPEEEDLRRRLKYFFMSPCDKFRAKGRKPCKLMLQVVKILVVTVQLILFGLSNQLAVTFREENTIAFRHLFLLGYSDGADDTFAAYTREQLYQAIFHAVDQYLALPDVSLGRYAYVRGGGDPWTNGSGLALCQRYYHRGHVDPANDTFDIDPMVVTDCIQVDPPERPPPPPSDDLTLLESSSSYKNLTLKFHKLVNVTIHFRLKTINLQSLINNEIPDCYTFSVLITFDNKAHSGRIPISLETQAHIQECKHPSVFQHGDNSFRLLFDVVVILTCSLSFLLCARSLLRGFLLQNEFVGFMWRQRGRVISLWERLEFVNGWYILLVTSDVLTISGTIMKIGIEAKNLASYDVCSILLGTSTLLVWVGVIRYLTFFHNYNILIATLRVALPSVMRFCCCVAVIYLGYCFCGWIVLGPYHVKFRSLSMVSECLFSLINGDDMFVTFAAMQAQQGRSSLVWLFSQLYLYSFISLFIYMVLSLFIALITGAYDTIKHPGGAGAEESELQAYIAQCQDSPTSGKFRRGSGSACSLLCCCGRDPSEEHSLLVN
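Cells: TRPML1-DL, 1X Tet inducer, ~16 h at 37 degrees C/5% CO2. Dye: ABD Ca8 no-wash + quencher, 45-90 min RT. Read: 10 s baseline, compound add, 110 s agonist phase; 54-4 EC80 (4uM final), 110 s antagonist phase.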
TRPML1 inh – qHTS for Inhibitors of the Human Mucolipin Transient Receptor Potential 1 (TRPML1) | Mucolipin-1 (Homo sapiens), Q9GZU1 | TRPML1-inducible cells, Ca2+ dye fluorescence, FDSS; hits give low values; inhibition of EC80 agonist-evoked calcium signal | activity change, negative = inhibition, % (test concentration not listed) | 390,000 tested, 0.02% active | AID 624415, 2012; in the data active means activity change below about -50%; inconclusive means about -30% to -50%; inactive means above about -30%;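 note: stimulus is agonist 54-4 at its EC80 concentration; % is set by controls: 0 for no effect and ±100 for the full control effect; compound concentration not given in the record; the text of the record puts the active cut at -80%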
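Tet-induced TRPML1-DL cells loaded with Ca8 no-wash calcium dye were read kinetically on FDSS. Compound addition was followed by EC80 agonist 54-4 (4 uM final); inhibition was read over 110 s.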
Active calls of the source: *; u = inconclusive; x = not tested or not shown; [ ] = dose if it differs, or a comment. Some of the compounds tested, so the mix of outcomes need not match the whole.

SMILES	gsp agonist	gsp antagonist	Menin-MLL FL inh	ClpP mod	TRPML1 ag	TRPML1 inh
C#CCN1CCN(c2ccc(F)cc2)CC1	u	16%	1.2	-1.7%	-0.4	13
OC1(c2ccccc2)CCNC2CCCCC21 (configuration not stated)	6%	2%	-1.8	x	0.3	10
CC(N)[C@H](O)c1ccc(O)c(O)c1 (some centres not stated)	x	x	-3.1	-1.1%	0.2	x
CCOC(=O)c1[nH]c(C)c(C(=O)N2CCC3(CC2)OCCO3)c1C	-8%	0%	1.3	-2.8%	0.3	-5
C=CP(=O)(O)c1ccccc1	5%	5%	0.5	u	0.1	7
CN1CCC2(CC1)CC(NC=O)c1ccccc1O2 (configuration not stated)	4%[15.4 µM]	x	-5.7	x	-0.2	-12
CCN(CC)c1ccc(/C=C2\C(=O)NC(=O)N(CC3CCCO3)C2=O)cc1 (configuration not stated)	-12%	-12%	u	-0.7%	-0.7	23
CCCCCCN=C(C)c1c(O)n(CCCC)c(=O)[nH]c1=O	-18%	-10%	3.1	13%	1.7	4
CC(=O)[C@@]1(O)CC[C@H]2[C@@H]3CC=C4C[C@@H](O)CC[C@]4(C)[C@H]3CC[C@@]21C	x	0%	-6.2	-2.1%	-0.1	-1
O=C(N/N=C/c1c(O)n(C2CC2)c(=S)[nH]c1=O)c1ccccc1O	-7%[15.4 µM]	-5%	2.1	-3.5%	-1.3	2
C[C@H](CO)N1C[C@H](C)[C@@H](CN(C)Cc2ccc(Cl)c(Cl)c2)Oc2c(NC(=O)c3ccncc3)cccc2C1=O	x	u	x	-2.1%	-0.4	9
CCOC(=O)C1=C(N)OC2=C(C(=O)CCC2)C12C(=O)N1c3c(ccc(C)c32)C(C)=CC1(C)C (configuration not stated)	2%	-11%	-0.5	1.4%	-0.8	-3
CN(C)c1ccc(P(=S)(N(C)C)N(C)C)cc1	5%	-14%	3.0	-10%	2.1	-9
CC12CCC3C(CCC4C/C(=N/O)CCC43C)C1CCC2O (configuration not stated)	2%	10%	1.0	1.7%	-0.1	9
Cc1nc2ccccc2n1C1CCN(Cc2nnnn2CCc2ccccc2)CC1	9%	-9%	-1.1	-1.3%	0.6	-4
Cn1cccc1/C=C1/C(=O)NC(=O)N(Cc2ccccc2)C1=O	-2%[15.4 µM]	12%	x	1.2%	-0.3	17
O=C(O)c1cccc2c1NC(c1cccc([N+](=O)[O-])c1)C1CC(Sc3ccccc3[N+](=O)[O-])C(Cl)C21 (configuration not stated)	-16%	u	u	x	-0.4	51
CCOC(=O)C1(c2ccccc2)CCN(CCC(C#N)(c2ccccc2)c2ccccc2)CC1	x	-8%	1.8	-1.9%	5.2	-4
Cc1c(CCN)ccc2c1[nH]c1ccccc12	26%	11%	-1.5	-24%	3.9	17
CCOP(=O)(OCC)c1cc(CC)ccc1O	10%[15.4 µM]	2%	1.4	x	-0.8	-12
C=CCN1CCc2cccc3c2[C@H]1Cc1ccc(O)c(O)c1-3	-31%[inhibitor]	-7%	0.2	x	-0.2	16
O=C1NC(=O)N(Cc2ccco2)C(=O)/C1=C\c1ccc(-c2ccc(F)cc2)o1	-7%[15.4 µM]	-10%	u	x	-0.1	7
CC(C)(C)C(=O)N1Cc2ccccc2-n2nncc2C1	x	4%	x	-2.1%	0.3	-3
Cc1ccc(C2=CCNCC2)cc1	2%[15.4 µM]	x	0.4	x	1.3	-12
CC12CC(=O)C3C(CCC4CC(=O)C=CC43C)C1CCC2=O (configuration not stated)	0%	17%	x	x	0.3	u
Cc1cc(Cl)nc(N)n1	24%[15.4 µM]	8%	6.5	0.7%	0.5	-17
CCCCCn1c(=O)c(C(=O)NCc2ccco2)c(O)c2ccccc21	-5%[15.4 µM]	12%	1.5	x	0.2	-2
CC(N)C(=O)c1ccco1 (configuration not stated)	1%	2%	8.4	-6.9%	0.5	-2
O=c1[nH]c2ccccc2c(=O)n1-c1cccc(Cl)c1	-13%	8%	1.2	u	0.2	61
O=c1c2ccccc2nc(/C=C/c2ccccc2O)n1-c1ccc(Br)cc1	x	x	x	-23%	3.2	19
CC(=NCC1CCCO1)c1c(O)n(C2CCCCC2)c(=O)[nH]c1=O (configuration not stated)	-2%	-1%	9.6	0.3%	2.9	16
O=C(CCNC(=O)N1C[C@H]2C[C@@H](C1)c1cccc(=O)n1C2)Nc1ccc(F)cc1	x	14%	-0.1	-3.1%	x	x
COC(=O)C1=C(c2cccc(OCc3ccccc3)c2)C[C@@H]2CC[C@H]1N2C(=O)NCc1ccc(OC)c(OC)c1	4%	-5%	x	0.1%	1.1	20
C[C@H]1O[C@@H](OC2CC[C@]3(C=O)[C@H]4CC[C@]5(C)[C@@H](C6=CC(=O)OC6)CC[C@]5(O)[C@@H]4CC[C@]3(O)C2)CC2OC(C)(C)OC21 (some centres not stated)	21%	-6%	4.1	-1.8%	0.4	0
COc1ccc(OC)c(CC(=O)N(C)C2CCCN(Cc3ccccc3F)C2)c1 (configuration not stated)	14%	5%	u	2.9%	0.9	-14
CCC(CC)C(=O)NC1CCSC1=O (configuration not stated)	u	6%	-1.5	-0.3%	0.0	15
COC(=O)C1=C(c2ccc(-c3ccccc3)c(F)c2)C[C@@H]2CC[C@H]1N2C(=O)NCCc1ccccc1	-5%	-13%	x	-9.0%	2.5	11
CC1CCCN(CC(=O)N2CCCc3ccccc32)C1 (configuration not stated)	2%	3%	3.3	-0.1%	0.8	13
C=CC[C@@H](CC/C=C/C=C/CC/C=C\[C@@H]1CSC([C@@H]2C[C@@H]2C)=N1)OC	x	1%	x	-0.8%	-0.5	9
O=C(Oc1ccc2ccc(OC(=O)N3CCOCC3)cc2c1)N1CCOCC1	-1%	-7%	0.1	-2.8%	0.8	19
C/C=C(\C)C(=O)N[C@@H](c1ccccc1)[C@@H](O)C(=O)O[C@H]1C[C@@]2(O)[C@@H](OC(=O)c3ccccc3)C3[C@](C)(C(=O)[C@H](O)C(=C1C)C2(C)C)[C@@H](O)C[C@H]1OC[C@@]31OC(C)=O (some centres not stated)	u	13%	1.7	1.3%	-0.6	-7
Cn1c(=O)oc2cc(S(=O)(=O)N3CCCC(C(=O)Nc4ccccn4)C3)ccc21 (configuration not stated)	1%	-1%	4.6	-1.4%	0.0	10
CCOC(=O)c1cc(C(O)(C(=O)OC)C(F)(F)F)c(/N=C/N(C)C)o1 (configuration not stated)	0%	3%	2.3	-22%	0.0	-13
O=C(NC(=O)c1c(F)cccc1F)Nc1cc(Cl)c(F)c(Cl)c1F	29%	-6%	2.5	-4.5%	3.7	-7
CCCNC(=O)c1c(N)n(Cc2ccco2)c2nc3ccccc3nc12	-4%	16%	u	28µM*	0.5	11
COc1cccc(CC(=O)N2CCN(Cc3cccc(Cl)c3)CC2)c1	-2%[15.4 µM]	-5%	4.0	x	-0.6	14
CCC(=NCCO)c1c(O)n(-c2ccc(Cl)cc2)c(=O)[nH]c1=O	u	5%	-0.6	-0.7%	-0.6	4
Cc1cc(Oc2cc(NN3CCCCC3)c([N+](=O)[O-])cc2[N+](=O)[O-])ccc1[N+](=O)[O-]	x	-13%	-0.3	1.3%	0.7	-7
COc1ccc(CN2CC=C(c3ccc(F)cc3)CC2)cc1Br	-51%[inhibitor]	-4%	-1.0	x	0.7	-13
COc1ccc(F)cc1C(=O)C1CCCN(Cc2ccc(O)cc2)C1 (configuration not stated)	3%[15.4 µM]	7%	-0.3	-0.5%	0.7	14
CC(=O)Cc1ccc(OC(C)C)cc1	-7%[15.4 µM]	13%	-1.3	0.4%	-0.4	3
CC1CN(C(=O)CCC(=O)N2CCC3(CC2)OCCO3)c2cc(Cl)ccc2O1 (configuration not stated)	4%	3%	x	-2.0%	-0.5	-10
CCOc1cc(/C=C2\C(=O)NC(=O)N(CCc3ccc(F)cc3)C2=O)ccc1O	-15%	3%	u	-0.6%	-0.3	38
COc1ccccc1N1CCN(Cc2c(F)cccc2F)CC1	u	-11%	0.8	1.4%	2.1	16
CC1=CC(=C2C(=O)NC(=S)NC2=O)C=C(C(F)(F)F)N1Cc1ccccc1	-28%[15.4 µM]	17%	u	x	0.2	-14
C/C(=N/OC(=O)N(C)C)c1ncc(C(F)(F)F)cc1N1CCOCC1	-2%	0%	-0.9	-26%	-0.6	48
Cc1ccc(N2C(=O)NC(=O)/C(=C/C=C/c3ccco3)C2=O)cc1	14%	-9%	u	-2.4%	4.8	-9
FC(F)(F)c1ccc2c(c1)NP(=S)(N1CCOCC1)c1nccn1-2 (configuration not stated)	-35%[inhibitor]	-3%	2.5	-1.5%	-0.5	-3
COc1ccc(CCNCc2cccn2C)cc1	-24%	-3%	4.2	1.5%	0.2	-29
Cc1ccc(-n2c(/C=C\c3ccc(F)c(F)c3)nc3ccccc3c2=O)c(C)c1	x	x	x	1.3%	-0.6	0

In a second layout: results already given
canonical_smiles: FC(F)(F)c1ccc2c(c1)NP(=S)(N1CCOCC1)c1nccn1-2 (configuration not stated)
  gsp agonist: -35%[inhibitor]	gsp antagonist: -3%	Menin-MLL FL inh: 2.5	ClpP mod: -1.5%	TRPML1 ag: -0.5	TRPML1 inh: -3

canonical_smiles: CC1=CC(=C2C(=O)NC(=S)NC2=O)C=C(C(F)(F)F)N1Cc1ccccc1
  gsp agonist: -28%[15.4 µM]	gsp antagonist: 17%	Menin-MLL FL inh: u	ClpP mod: x	TRPML1 ag: 0.2	TRPML1 inh: -14

More results
SMILES	gsp agonist	gsp antagonist	Menin-MLL FL inh	ClpP mod	TRPML1 ag	TRPML1 inh
CCOP(=O)(OCC)C(Cc1ccccc1)NC(C)=O (configuration not stated)	-21%	-5%	-0.2	0.5%	3.8	12
Cc1cc(C)n2nc(C)[n+](C)c2n1	7%	6%	2.5	-10%	0.1	-13
Cc1cccc(Cn2cccc(C(=O)Nc3ccc(F)cc3F)c2=O)c1	x	x	x	27%	0.0	9
O=C1CC(C(=O)N2CCC3(CC2)OCCO3)CN1CCc1ccccc1 (configuration not stated)	11%	-1%	3.7	-1.8%	-0.6	3
Nc1ccc(Cc2ccc(N)cc2)cc1	-53%[inhibitor]	10%	x	0.7%	0.0	-12
C1=C(CCNCc2ccccc2)CCCC1	-25%	8%	-1.7	-0.8%	1.0	-8
